Cruzain inh noDet – qHTS Assay for Promiscuous and Specific Inhibitors of Cruzain (without detergent) | Cruzipain (Trypanosoma cruzi), P25779 | purified cruzain, Z-FR-AMC fluorescence, no detergent | Potency, µM, for the others: max response, negative = inhibition, usual class: inhibitors | 200,000 compounds, 2.3% hits; active means well fitted curve in the direction sought with a large enough effect; inconclusive means small, poorly fitted or top-dose-only effect, or another doubt; inactive means no such curve, though single readings can be large; an effect the other way counts as inactive or inconclusive;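 further: plate controls were enzyme without inhibitor for no effect and buffer without enzyme for full effect; nearly all actives have a fitted effect of over 40% in size; top concentration of the series not given in the record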
Target sequence (P25779 123-467 limits assumed): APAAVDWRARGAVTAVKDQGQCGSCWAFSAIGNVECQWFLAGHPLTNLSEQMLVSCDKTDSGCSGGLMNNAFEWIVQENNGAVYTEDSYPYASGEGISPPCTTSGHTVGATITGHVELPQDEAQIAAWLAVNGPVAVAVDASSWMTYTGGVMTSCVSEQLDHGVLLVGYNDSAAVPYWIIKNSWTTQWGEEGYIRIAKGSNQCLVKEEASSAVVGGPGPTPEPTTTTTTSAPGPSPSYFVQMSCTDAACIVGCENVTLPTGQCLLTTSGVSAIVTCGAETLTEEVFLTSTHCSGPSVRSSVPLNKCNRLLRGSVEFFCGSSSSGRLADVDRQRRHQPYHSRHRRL
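Purified cruzain at 1.5 nM, pre-incubated 15 min with compound at room temperature in 100 mM sodium acetate pH 5.5, 5 mM DTT, 0.00005% Triton X-100. Reaction started with 2 uM Z-FR-AMC; AMC fluorescence increase over 60 s gives rate.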
Cruzain Triton – qHTS Assay for Promiscuous and Specific Inhibitors of Cruzain (with detergent); 200,000 compounds, 0.43% hits; Cruzipain (Trypanosoma cruzi), P25779; AID 1478, 2009; purified cruzain, Z-FR-AMC fluorescence, 0.01% Triton; Potency, µM, without a hit: max response, negative = inhibition, most hits filed as inhibitors; active means well fitted curve in the direction sought with a large enough effect; inconclusive means small, poorly fitted or top-dose-only effect, or another doubt; inactive means no such curve, though single readings can be large; an effect the other way counts as inactive or inconclusive;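 further: plate controls were neutral wells for no effect and buffer without enzyme for full effect; nearly all actives have a fitted effect of over 40% in size; top concentration of the series not given in the record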
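Cruzain (1.5 nM) preincubated 15 min at RT with compound in 100 mM sodium acetate pH 5.5, 5 mM DTT, 0.01% Triton X-100. Reaction started with 2 uM Z-FR-AMC; AMC fluorescence (ex 360/em 450 nm) change over 60 s gave rate.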
RE007 growth inh – qHTS Assay for Inhibitors of the HIV-1 protein Vpr; S. pombe RE007 Vpr strain, BacTiter-Glo ATP luminescence, 24 h; control for the full effect not named in the record; Potency, µM (highest dose often 92.2 µM), inactives show at the highest dose activity change, negative = less growth; 360,000 compounds, 0.21% hits; AID 651644, 2012; active = well fitted falling curve with a large enough effect; inconclusive = small, poorly fitted or top-dose-only effect; inactive = no such curve, though single readings can be large or run the other way;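 further: on the % scale 0 is the no-effect control and ±100 the full control effect; nearly all actives have a fitted effect of over 50% in size; the assay follows cell death caused by Vpr and the record does not say whether a fall means rescue or toxicity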
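Fission yeast RE007 carrying one integrated HIV-1 vpr copy, seeded at OD 0.01 in PMG+AL medium with 23 nL pinned compound. Grown 24 h at 30 degrees; viability read by BacTiter-Glo luminescence after 5 min.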
LASV entry inh – qHTS for Inhibitors of binding or entry into cells for Lassa Virus; Potency, µM (titrated, usually from 37.9 µM), for inactives: at the top dose activity change, negative = inhibition, usual class: inhibitors; Lassa virus pseudotype entry inhibition, cell reporter; control for the full effect not named in the record; 300,000 compounds, 1.2% hits; active means well fitted inhibition curve with a large enough effect; inconclusive means small, poorly fitted or top-dose-only effect, or effect the other way; inactive means flat fitted curve, though single readings scatter; tested in HEK293 cells; further: on the % scale 0 is the no-effect control and ±100 the full control effect; nearly all actives have a fitted effect of over 50% in size; luciferase read-out
SARS PLP yeast – qHTS of Yeast-based Assay for SARS-CoV PLP. 330,000 compounds, 0.19% hits. S. cerevisiae expressing SARS-CoV PLpro, growth rescue; control for the full effect not named in the record. Potency, µM (doses to about 32.9 µM), for the others: at the highest dose activity, positive = growth rescue. AID 485353, 2010; further: 0% is about no effect; nearly all actives have a fitted effect of over 55% in size; growth read by luminescence after 48 h
MARV entry inh – qHTS for inhibitors of binding or entry into cells for Marburg Virus. Marburg virus pseudotyped entry inhibition, cell reporter; control for the full effect not named in the record; about a third of the inactives were read at about 46 µM. Potency, µM (highest dose often 37.8 µM), inactives show at the highest dose activity change, negative = inhibition, most hits filed as inhibitors. 300,000 compounds, 1.8% hits. AID 540276, 2011; active = well fitted inhibition curve with a large enough effect; inconclusive = small, poorly fitted or top-dose-only effect, or effect the other way; inactive = flat fitted curve, though single readings scatter; tested in HEK293 cells; about a fifth of its hits are not listed in these tables; further: on the % scale 0 is the no-effect control and ±100 the full control effect; luciferase read-out
StopGo reporter – High Throughput Screening for Foot and Mouth Disease Virus Antivirals; human cells with a luciferase reporter of 2A StopGo recoding; control for the full effect not named in the record; Potency, µM (titrated, usually from 57.9 µM), for inactives: at the highest dose signal change, negative = less light; 410,000 compounds, 1.2% hits; active = well fitted falling curve with a large enough effect; inconclusive = small, poorly fitted or top-dose-only effect; inactive = no such curve, though single readings can be large or run the other way; tested in HEK293T cells; further: on the % scale 0 is the no-effect control and ±100 the full control effect; nearly all actives have a fitted effect of over 45% in size; luciferase light after 4 h
NS1 function inh – qHTS Assay for Inhibitors of Influenza NS1 Protein Function. Potency, µM (series often up to 46.1 µM), inactives show at the highest dose activity, positive = more growth. S. cerevisiae slowed by influenza A NS1, growth recovery by OD600. 270,000 compounds, 0.4% hits. AID 2326, 2010; further: actives are rising curves; nearly all actives have a fitted effect of over 50% in size
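OD600 was taken as the measure of yeast growth restored by compound in an NS1-expressing S. cerevisiae strain. Cells had been washed out of glucose medium and diluted 1:100 into galactose -URA medium, pH 6.0.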
Starred values were filed as active, the others as inactive; u = inconclusive; x = no result given; & = joins results of further samples; [ ] = remark or other dose. Unless noted, the call rests on the fitted dose curve; in most records, active means well fitted rising curve with a large enough effect; inconclusive means small, poorly fitted or top-dose-only effect; inactive means no such curve, though single readings can be large or run the other way. Potency means the concentration at half of the fitted maximal effect.

SMILES	Cruzain inh noDet	Cruzain Triton	RE007 growth inh	LASV entry inh	SARS PLP yeast	MARV entry inh	StopGo reporter	NS1 function inh
O=C(CC1C(=O)NCCN1CC(c1ccccc1)c1ccccc1)NC1CC1 (centres undefined)	x	x	0%	1%[46.1 µM]	0%	u	-7%	-3%
O=C1C(=O)c2ccc(-c3ccccc3)cc2-c2ccccc21	u	-7.6%	u	u	-78%	5.8µM*	14µM*	-40%
CCCOC(=O)c1ccc(Oc2c(-c3ccc(OCC)cc3O)n[nH]c2C)cc1	-9%	1.5%	-9%	u	-13%	u	x	-88%
COC(=O)c1ccc(NC(=S)NNC(=O)CC(C)C)cc1	2%	3.2%	15%	0%	-10%	-10%	17%	15%
CC(=O)n1c(C=Nc2ccccc2)c(O)c2ccccc21	x	x	-2%	14%	-1%	-15%[46.1 µM]	23%	x
Fc1cccc(F)c1/C=C/c1ccc2ccccc2n1	-12%	-4.8%	u	u	-35%	u	-51%	-21%
CN(C)c1ccc(N=c2sc3ccccc3n2C)cc1	-1%	2.5%	-22%	-4%	-17%	u	x	5%
O=C(NCCC1CC1(Cl)Cl)Nc1ccccc1 (centres undefined)	x	x	-13%	-1%	-1%	20%[46.1 µM]	47%[activator]	0%
COc1ccc(-c2nc3c(C#N)c[nH]n3c2NC2CCCCC2)c(OC)c1	u	-5.0%	x	-25%[46.1 µM]	x	11%[46.1 µM]	-7%	x
C[C@]12CCC3C(CC[C@H]4C[C@@H](O)CC[C@]34C)C1C[C@@H](O)[C@]2(C)O (some centres undefined)	x	x	10%	12%[46.1 µM]	-1%	-4%[46.1 µM]	-18%	x
NS(=O)(=O)c1ccc(CNC(=O)NC2(c3ccccc3)CC2)cc1	1%	6.8%	0%	x	-1%	x	-10%	-8%
Cc1ccccc1OCCC(=O)OCC(=O)N(C)c1c(N)n(Cc2ccccc2)c(=O)[nH]c1=O	x	x	-14%	-9%	2%	-1%	-18%	7%
Cc1ccc(N(CC(O)CN2CCOCC2)S(=O)(=O)c2ccc3ccccc3c2)cc1 (centres undefined)	5%	4.7%	2%	-14%	2%	-11%[46.1 µM]	19%	-7%
O=C(CCNS(=O)(=O)c1ccc(Cl)cc1)N1CCCCCC1	x	x	-7%	-8%	-4%	6%	-1%	9%
COc1ccc(CC2(CO)CCN(Cc3cnn(-c4ccccc4)c3)CC2)cc1	x	x	-10%	-5%	0%	u	u	0%
CCC(C)C1C(C#N)=C(N)OC2=C1C(=O)CC(C)(C)C2 (centres undefined)	-2%	-4.6%	-16%	x	-5%	x	u	-84%
O=C(Nc1nnc(SCC(=O)N2CCOCC2)s1)c1ccccc1Cl	-9%	-5.2%	-12%	30%	3%	15%	24%	8%
Cc1ccc(S(=O)(=O)N(CC(=O)c2ccc(Cl)cc2)C(=O)N2CCN(C)CC2)cc1	x	x	-12%	-4%	-2%	5%	-9%	x
COc1ccc(Cc2noc(CN(C)Cc3cccc(-n4cccn4)c3)n2)cc1OC	x	x	1%	-13%	-1%	u	u	-7%
CC(C)c1ccc(C(=O)CSc2ncn[nH]2)cc1	9%	-1.0%	11%	11%	-10%	6%	40%[activator]	-88%
Cc1nnc(SCc2cccc([N+](=O)[O-])c2)o1	x	x	10%	u	0%	u	-7%	5%
C=CCN=C1CC(C)(C)CC(=O)/C1=C(\O)c1ccccc1	-5%	2.2%	6%	27%	5%	13%	3%	0%
Cc1cccc(NS(=O)(=O)c2ccc3c(c2)NC(=O)CO3)c1C	x	x	0%	x	u	x	14%	19%
COc1ccccc1Nc1nc(C2(C)CCC(=O)O2)cs1 (centres undefined)	7%	-2.6%	3%	u	-2%	u	9%	-6%
COCCNCCCCOc1ccc(C)cc1[N+](=O)[O-]	4%	-3.4%	-25%	4%	-4%	28%	0%	8%
CCOc1ccc(CN2CCN(C3CCSCC3)CC2CCO)cc1 (centres undefined)	x	x	-30%	-12%	0%	3%[46.1 µM]	24%	4%
COc1cc(-c2cc(C(=O)Nc3ccc(N4CCOCC4)cc3)c3ccccc3n2)cc(OC)c1OC	x	x	-13%	x	0%	x	0%	7%
CC(C)N1CCc2c(sc(NC(=O)Cc3ccccc3)c2C#N)C1	x	x	10%	x	0%	x	-7%	1%
CCCCC(=O)Nc1cc2nn(-c3ccc(OCC)cc3)nc2cc1C	7%	-0.7%	x	u	x	u	28%	x
O=C(NC1CCCCC1)C(c1ccncc1)N(Cc1ccc2c(c1)OCO2)C(=O)C(F)(F)F (centres undefined)	6%	-3.3%	16%	u	-7%	u	14%	-9%
CCOc1ccc(-n2nnnc2SCC(=O)NC2CCCC2)cc1	x	x	13%	2%	0%	7%[46.1 µM]	-14%	-4%
COc1ccc(C)cc1NC(=O)c1ccc2nc(Cc3ccccc3)oc2c1	2%	-4.6%	x	-13%[46.1 µM]	x	x	0%	x
c1ccc(Oc2nnc(-c3cccs3)c3ccccc23)cc1	-9%	-4.8%	x	0%	-12%	2%	-25%	3%
Cc1c(Cl)cccc1NC(=O)CSc1ncnc2c1sc1ccccc12	-6%	1.0%	x	u	x	x	-12%	x
COc1ccc(-c2nc3sc(CCNC(=O)c4ccc(Br)o4)c(C)n3n2)cc1	u	-4.4%	x	u	x	x	4%	x
O=C(CSc1cnc2ccccc2n1)c1ccc(F)cc1	-16%	-8.1%	6%	5.8µM*	u	u	18%	12%
COc1ccc(C(=O)NNC(=S)NC(=O)c2cccnc2)cc1	x	x	-23%	-25%	0%	u	8%	-5%
O=C1CC(NS(=O)(=O)c2cccs2)CN1c1ccccc1 (centres undefined)	x	x	1%	7%[46.1 µM]	1%	u	-12%	x
CCCOc1ccc(NC(=O)CC2C(=O)N(C)C(=S)N2Cc2cccs2)cc1 (centres undefined)	27%	-9.9%	-1%	u	-39%	u	-14%	-7%
Cc1nc2ccccc2n1CCc1nc2c3ccccc3nc(SCc3ccc(F)cc3)n2n1	-6%	4.4%	x	4%[46.1 µM]	x	x	-13%	x

Single records, from the list above. Screens in order: Cruzain inh noDet | Cruzain Triton | RE007 growth inh | LASV entry inh | SARS PLP yeast | MARV entry inh | StopGo reporter | NS1 function inh
Cc1nc2ccccc2n1CCc1nc2c3ccccc3nc(SCc3ccc(F)cc3)n2n1 is entered as -6% | 4.4% | x | 4%[46.1 µM] | x | x | -13% | x
CC(C)N1CCc2c(sc(NC(=O)Cc3ccccc3)c2C#N)C1 is entered as x | x | 10% | x | 0% | x | -7% | 1%
CCCCC(=O)Nc1cc2nn(-c3ccc(OCC)cc3)nc2cc1C is entered as 7% | -0.7% | x | u | x | u | 28% | x
COc1cc(-c2cc(C(=O)Nc3ccc(N4CCOCC4)cc3)c3ccccc3n2)cc(OC)c1OC is entered as x | x | -13% | x | 0% | x | 0% | 7%
COc1ccc(-c2nc3sc(CCNC(=O)c4ccc(Br)o4)c(C)n3n2)cc1 is entered as u | -4.4% | x | u | x | x | 4% | x

Going on with the list:
SMILES	Cruzain inh noDet	Cruzain Triton	RE007 growth inh	LASV entry inh	SARS PLP yeast	MARV entry inh	StopGo reporter	NS1 function inh
COc1ccc(NC(=O)C2CSC3c4ccccc4C(=O)N23)cc1 (centres undefined)	-6%	0.6%	1%	-1%	u	7%	-3%	-2%
COc1ccc(CNC(=O)c2cc(-c3ccc(Br)s3)nc3ccccc23)c(OC)c1	0%	-3.0%	x	11%[46.1 µM]	x	-15%[46.1 µM]	-10%	x
COc1cccc(C2=NOC(C(=O)Nc3cc(C)nn3-c3ccccc3)C2)c1OC (centres undefined)	1%	-3.1%	-3%	-25%	7%	-27%&-27%	u	-3%
CCc1c(C(=O)Nc2cc(C(=O)OC)ccc2C)csc1C	x	x	11%	x	4%	x	-18%	5%
COc1ccc(C(=O)COC(=O)[C@H](C)Nc2ccc(C(F)(F)F)cc2[N+](=O)[O-])c(OC)c1	3%	-0.7%	-2%	0%	-3%	5%[46.1 µM]	-13%	2%
CC(C)c1c(C(=O)N/N=C/c2ccc3c(c2)OCO3)nnn1-c1nonc1N	x	x	6%	x	0%	x	-3%	1%
COc1ccc(C2C3=C(CC(C)(C)CC3=O)Oc3ncn4nc(-c5ccccc5)nc4c32)cc1 (centres undefined)	x	x	4%	3%	x	-7%[46.1 µM]	14%	x
CCCC(c1nnnn1Cc1ccc(OC)cc1)N1CCN(c2ccccc2)CC1 (centres undefined)	-7%	1.2%	18%	-24%	-3%	-5%&2%	-21%	-51%
COc1ccc(C(=O)NCC2(N3CCCCC3)CCCCC2)cc1S(=O)(=O)N(C)C	x	x	-4%	u	-1%	4%[46.1 µM]	22%	-4%
CC(=O)Nc1ccc(S(=O)(=O)N2CCN(c3cc(C)nc4ncnn34)CC2)cc1	x	x	-24%	0%	10%	0%[46.1 µM]	-10%	-1%
C=CCn1c(=O)c2ccccc2n2c(SCC(=O)c3ccccc3)nnc12	16µM*	-1.1%	-4%	19%	2%	-29%	0%	6%
COc1ccc(CCn2c(=N)c(C(=O)NC3CCCCC3)cc3c(=O)n4ccccc4nc32)cc1	x	x	0%	x	13%	x	-22%	10%
S=C(NCc1ccco1)NC1CCCc2ccccc21 (centres undefined)	x	x	-19%	1%	10%	u	-1%	-3%
Cc1ccnc(NS(=O)(=O)c2ccc(NC(=O)Cc3ccc(Br)cc3)cc2)n1	x	x	-6%	x	-3%	x	1%	1%
COc1ccc(C(c2c(O)cc(C)oc2=O)c2c(O)cc(C)oc2=O)cc1	0%	8.6%	-6%	-10%[14.3 µM]	-2%	2%	-18%	13%
CCOC(=O)c1nc[nH]c1C	-4%	3.7%	13%	9%	-1%	-17%	-15%	2%

Rows are unselected; 4.7% or so of the library scored in one or more.
